PINK1 modulator: A Quantitative High throughput Screen to Identify Chemical Modulators of PINK1 Expression. PINK1 immunofluorescence, high-content cytometry, 24 h. Potency, µM (highest dose often 76.6 µM), without a hit: at the highest dose activation (PINK1 increase), hits mostly activators. 0.2% of 410,000 active; active = well fitted activation curve with a large enough effect; inconclusive = small, poorly fitted or top-dose-only effect; inactive = flat fitted curve, though single readings scatter; cell line not stated here;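 note: potency is the fitted concentration of half-maximal effect; % of control where 0% means no effect; nearly all actives have a fitted effect of over 65% in size; a mitochondrial uncoupler was the plate control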
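Compound titrations (5 concentrations, 24 h) on a stable cell line; DMSO and CCCP controls. Endpoint: fixed-cell PINK1 immunofluorescence with mitochondrial, cell and nuclear markers, scanned by microplate cytometer.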
Six1-Eya2 blk: qHTS Assay for Inhibitors of the Six1/Eya2 Interaction; Homeobox protein SIX1 (Homo sapiens) + Protein phosphatase EYA2 (Homo sapiens), …; AlphaScreen GST-Six1/His-Eya2 binding, biochemical; active compounds read low; control for the full effect not named in the record; activity change, % (concentration not given with the values); 0.56% of 360,000 active; AID 651725, 2012; in the data active = activity change below about -65%; inconclusive = about -30% to -65%; inactive = above about -30%; note: % is set by controls: 0 for no effect and ±100 for the full control effect
Target sequence (O00167 whole entry, looked up): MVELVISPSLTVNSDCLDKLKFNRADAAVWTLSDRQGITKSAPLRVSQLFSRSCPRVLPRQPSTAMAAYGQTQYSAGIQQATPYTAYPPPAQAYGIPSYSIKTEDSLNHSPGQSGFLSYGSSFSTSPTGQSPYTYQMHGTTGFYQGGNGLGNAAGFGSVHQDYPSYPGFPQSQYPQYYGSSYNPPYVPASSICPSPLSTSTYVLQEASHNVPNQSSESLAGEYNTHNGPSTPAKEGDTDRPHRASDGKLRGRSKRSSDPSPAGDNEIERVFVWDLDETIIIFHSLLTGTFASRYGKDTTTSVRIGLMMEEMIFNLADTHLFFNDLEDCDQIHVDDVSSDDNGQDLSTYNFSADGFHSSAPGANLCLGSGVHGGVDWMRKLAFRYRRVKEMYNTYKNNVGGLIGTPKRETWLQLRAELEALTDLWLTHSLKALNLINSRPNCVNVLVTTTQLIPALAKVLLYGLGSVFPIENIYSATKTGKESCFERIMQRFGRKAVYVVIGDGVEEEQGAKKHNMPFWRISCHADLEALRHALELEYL
Target sequence (Q15475 whole entry, looked up): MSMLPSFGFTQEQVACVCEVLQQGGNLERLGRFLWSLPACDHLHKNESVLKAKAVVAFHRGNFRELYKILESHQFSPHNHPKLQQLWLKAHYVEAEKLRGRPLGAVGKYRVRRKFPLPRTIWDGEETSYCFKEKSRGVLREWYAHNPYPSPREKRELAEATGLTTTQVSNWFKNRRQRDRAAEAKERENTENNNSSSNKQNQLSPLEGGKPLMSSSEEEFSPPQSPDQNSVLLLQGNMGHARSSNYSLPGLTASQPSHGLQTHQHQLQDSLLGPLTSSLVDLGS
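Compounds are tested against tagged Six1 and Eya2 proteins bridged by glutathione donor and nickel acceptor beads; after a one-hour incubation at 37 °C without light, AlphaScreen emission is recorded.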
D2 agonist: Beta-Arrestin HTS for Positive Allosteric Modulators of the Human D2 Dopamine Receptor: Agonists | activation, % (no concentration beside the values) | D(2) dopamine receptor (Homo sapiens), P14416 | AID 624465, 2012 | DiscoveRx PathHunter D2 beta-arrestin, luminescence, 90 min; 100% = 57 uM dopamine signal | 0.084% of 360,000 active; in the data active = activation above about 40%; inconclusive = about 15% to 40%; inactive = below about 15%; note: compound concentration not given in the record; the text of the record calls up to 30% inactive
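Agonist mode: compounds alone added to overnight-plated D2 PathHunter cells for 90 min at 37 C, with 57 uM final dopamine (EC100) defining full response. Beta-arrestin recruitment detected by chemiluminescent reagent, read after 1 h at ambient temperature.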
TRPML1 agonist: qHTS for Agonists of the Human Mucolipin Transient Receptor Potential 1 (TRPML1) | 0.12% of 410,000 active | activation, % (concentration not given with the values) | TRPML1-expressing cells, Ca2+ dye fluorescence, FDSS; host cell line not named in the record; reference of the full effect not given here; in the data active = activation above about 50%; inconclusive = about 30% to 50%; inactive = below about 30%; note: 0% is about no effect; the text of the record puts the active cut at 80%
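Tetracycline-induced TRPML1-DL cells are seeded and incubated overnight before loading with a no-wash Ca2+ dye and quencher. Agonist activity is taken from the 110 s fluorescence read following compound pin-transfer on an FDSS, before EC80 54-4 challenge.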
TRPML1 blocker: qHTS for Inhibitors of the Human Mucolipin Transient Receptor Potential 1 (TRPML1); Mucolipin-1 (Homo sapiens), Q9GZU1; TRPML1-inducible cells, Ca2+ dye fluorescence, FDSS; active compounds read low; inhibition of EC80 agonist-evoked calcium signal; activity change, negative = inhibition, % (concentration not given with the values); 0.02% of 390,000 active; AID 624415, 2012; in the data active means activity change below about -50%; inconclusive means about -30% to -50%; inactive means above about -30%;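 note: stimulus is agonist 54-4 at its EC80 concentration; % is set by controls: 0 for no effect and ±100 for the full control effect; the text of the record puts the active cut at -80%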
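Calcium fluorescence in TRPML1-DL cells induced overnight with Tet: a 110 s read after compound pin addition, then a 110 s antagonist read after challenge with 54-4 at 4 uM final (EC80).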
D2 potentiator: Beta-Arrestin HTS for Positive Allosteric Modulators of the Human D2 Dopamine Receptor: Potentiators | D(2) dopamine receptor (Homo sapiens), P14416 | DiscoveRx D2 beta-arrestin cells, luminescence, 90 min; 100% = 57 uM dopamine signal | potentiation, % (test concentration not listed) | 0.23% of 360,000 active; active = potentiation of 50% or more; inconclusive = 30% to 50%; inactive = 30% or less;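 note: compound concentration not given in the record; tested on top of an EC20 dose of dopamine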
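D2 cells co-treated with compound plus 50 nM dopamine (EC20) for 90 min at 37 deg C to detect potentiation. Beta-arrestin recruitment was read as enzyme-fragment luminescence after 1 h at ambient temperature. Full response was set by 57 uM dopamine.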
An asterisk follows results filed as active; ? = inconclusive; . = no result given; & = joins results of further samples; [ ] = another dose, or the depositor's remark. The order is random, and some 1% of all compounds hit somewhere here.

no.	Compound	PINK1 modulator	Six1-Eya2 blk	D2 agonist	TRPML1 agonist	TRPML1 blocker	D2 potentiator
1	CCOc1ccc(NS(=O)(=O)c2ccc3c(c2)CCN3C(C)=O)cc1	2.8%&1.9%	-2.3	-3.8	-1.4&-0.4	4.5&32.1	-6.0
2	CCN(CC)S(=O)(=O)c1ccc(/C=C/C(=O)Nc2c(C)n(C)n(-c3ccccc3)c2=O)cc1	-0.3%	-1.8	5.6	0.0	17.9	-3.2
3	COc1ccc2cc(CN(CC3CCCO3)C(=S)NCc3ccco3)c(=O)[nH]c2c1 (configuration not stated)	-0.3%	1.5	-2.6	2.2	-15.8	4.5
4	CCc1ccccc1NC(=O)COc1cccc(-n2cnnn2)c1	1.3%	8.3	-6.3	1.1	-17.5	-3.5
5	Cc1ccc(C)c(NC(=S)N/N=C2/CCCCc3ccccc32)c1	9.6%	?	-10.6	0.9	21.8	-44.3
6	CCN1CCN(c2ccc(S(=O)(=O)N3CCCCC3)cc2NC(=O)Cc2ccccc2)CC1	-0.5%	4.9	-2.0	0.0	3.5	-20.3
7	O=C(CSc1nnc(-c2cccnc2)n1Cc1ccco1)Nc1cccc(O)c1	0.3%	-0.1	-9.7	-0.4	2.5	-5.5
8	CC1CCN(c2ccc(NC(=S)NC(=O)c3ccc(-c4cccc([N+](=O)[O-])c4)o3)cc2)CC1	?	-19.9	-2.3	-0.3	3.7	1.6
9	CC(C)C(=O)Nc1cccc(-c2cn3ccccc3n2)c1	0.3%	14.5	-0.9	1.0	-8.5	-7.1
10	O=C(NCCN1CCOCC1)/C(=C\c1ccc(Br)cc1)NC(=O)c1cccs1	-1.8%	-7.2	-2.6	-0.7	24.2	-13.7
11	CC(=O)NC(c1ccc(F)cc1)c1cccnc1 (configuration not stated)	1.2%	2.2	-0.4	0.5	-10.7	3.1
12	CCC(C)(C(=O)NC1CCCCC1)N(Cc1ccco1)C(=O)CC1NC(=O)NC1=O (configuration not stated)	1.2%	8.1	0.6	1.4	-3.2	-0.6
13	Cc1cccc(NC(=O)Nc2ccc(S(=O)(=O)Nc3onc(C)c3C)cc2)c1	-0.4%	-9.4	-2.8	-0.1	-6.9	-3.0
14	O=[N+]([O-])c1c(Nc2ccc(O)cc2)cc(Cl)c2nonc12	-0.8%	-26.4	-0.2	-0.7	10.4	-67.9
15	COc1cc(/C=C/CN2CCN(Cc3ccc(C)o3)C(CCO)C2)ccc1O (configuration not stated)	-0.5%	-5.5	-2.8	-0.8	0.5	-16.3
16	O=C(NCc1ccccc1)Nc1cc(Cl)ccc1Cl	12.5%	3.0	-4.0	2.2	3.9	-11.2
17	COc1ccc(Cc2noc(CN3CCCC(C(=O)c4cccs4)C3)n2)cc1OC (configuration not stated)	23.8%	2.1	3.4	0.3	39.9	0.3
18	COc1ccc(-n2nc(C(=O)NCC(=O)Nc3ccccn3)c3ccccc3c2=O)cc1Cl	10.6%	4.3	-1.3	-0.7	-4.7	-4.5
19	CC1(C(=O)NCc2ccc3c(c2)OCO3)CCN1Cc1csc2ccccc12 (configuration not stated)	-0.6%	-8.6	-9.3	-0.5	.	-15.2
20	CCSc1oc(-c2ccco2)nc1S(=O)(=O)c1ccc(C)cc1	2.5%	-2.5	-4.2	1.7	7.0	-8.0
21	O=C(Cc1ccccc1)Nc1ccccc1Oc1ccccc1	-0.4%	13.0	0.5	2.8	-10.9	-6.5
22	O=S(=O)(c1cccc2nsnc12)N1CCCCC1	-1.7%	4.9	-5.5	1.2	2.7	-4.6
23	O=C(Oc1ccccc1-c1nnco1)c1ccc(Cl)cc1	-0.5%	-11.6	-1.5	-0.2	-17.7	-10.3
24	O=C1C=CC(=Nc2ccc3c(c2)C(=O)c2ccccc2-3)O1	-0.7%	?	-4.0	0.3	-0.5	-14.0
25	Cc1cc(C)cc(NC(=O)CCN2CCOCC2)c1	-1.8%	3.0	-2.8	0.0	15.9	-29.4
26	COc1ccc(OC)c(CNc2ncc(-c3ccc(Cl)cc3)n2C)c1	2.8%	.	.	-0.8	-6.5	.
27	Cc1ccc(CN2CCN(Cc3cn(C)nc3C)CC2CCO)o1 (configuration not stated)	-0.2%	0.6	-2.0	0.1	31.7	-11.1
28	COc1ccccc1S(=O)(=O)Nc1ccc2cn[nH]c2c1	2.0%	11.2	-6.4	-1.0	-4.2	3.8
29	COc1ccc(Nc2nc(-c3cccs3)cs2)c(OC)c1	.	-13.7	-2.5	-0.1	-7.6	-3.6
30	C[C@H]1CN([C@@H](C)CO)C(=O)CCCn2nncc2CO[C@@H]1CN(C)C(=O)c1ccccc1	0.6%	14.9	-2.9	-0.5	1.5	1.1

Profiles, looked up by structure. Values in the order: PINK1 modulator	Six1-Eya2 blk	D2 agonist	TRPML1 agonist	TRPML1 blocker	D2 potentiator
CC(=O)NC(c1ccc(F)cc1)c1cccnc1 (configuration not stated) as listed: 1.2%	2.2	-0.4	0.5	-10.7	3.1
Cc1ccc(CN2CCN(Cc3cn(C)nc3C)CC2CCO)o1 (configuration not stated) as listed: -0.2%	0.6	-2.0	0.1	31.7	-11.1

Carrying on:
no.	Compound	PINK1 modulator	Six1-Eya2 blk	D2 agonist	TRPML1 agonist	TRPML1 blocker	D2 potentiator
31	COC(=O)C1=C(C)N(c2ccc(OC)cc2)C(C)=C(C(=O)OC)C1c1ccccc1	4.4%	-2.5	-2.4	-0.6	17.5	-18.7
32	CCOC(=O)N1CCc2c(sc3c2C(=O)NC(c2ccccc2F)N3)C1 (configuration not stated)	0.9%	.	.	-0.7	-3.9	.
33	c1coc(-c2ccnc(-c3ccncc3)n2)c1	1.5%	1.2	-1.0	0.0	-12.3	1.2
34	CCOC(=O)c1ccc(N2C(=O)c3n[nH]c(-c4ccco4)c3C2c2ccc(C(=O)OC)cc2)cc1 (configuration not stated)	0.6%	.	.	2.6	27.7	.
35	Cc1cc(=O)oc2cc(OCC(=O)Nc3ccccc3C(=O)O)ccc12	4.0%	-23.2	0.4	-0.6	-2.8	-3.2
36	CC(C)CC(=O)N=C1SC2CS(=O)(=O)CC2N1Cc1ccccc1Cl (configuration not stated)	1.5%	2.8	2.2	1.7	8.8	3.8
37	C=CCSc1nnc2c(n1)OC(c1ccco1)Nc1ccccc1-2 (configuration not stated)	-1.7%	-7.9	-1.4	-1.2	-8.3	-4.8
38	CCOc1cc(NC(=S)NCC(C)C)c(OCC)cc1NC(=O)c1cccs1	8.4%	-1.8	-0.7	3.1	33.3	5.0
39	Cc1ccc(S(=O)(=O)NCC(c2ccco2)N2CCN(c3ccccc3F)CC2)cc1 (configuration not stated)	0.9%	.	.	2.4	5.7	.
40	COc1cccc(C(=O)N2CCN(C(=O)c3cccc4ccccc34)CC2)c1OC	-3.0%	-3.1	-2.3	1.6	32.0	-4.1
41	COCCN(CCOC)c1nc(S(=O)(=O)c2ccc(C)cc2)c(Cl)s1	1.5%	2.3	-0.6	1.4	0.6	-14.9
42	CCc1cccc(C)c1NC(=O)c1ccc2c(c1)CCN2S(=O)(=O)c1ccc(Cl)cc1	1.1%	.	.	0.5	9.5	.
43	Cc1cccn2c(/C=N/OCc3ccc(F)cc3)c(-c3ccc(Cl)cc3)nc12	10.6%	8.9	-1.7	0.5	?	-2.8
44	O=C1NN(c2ccccc2)C(=O)/C1=C\c1ccccc1	-1.6%	5.7	-0.5	0.2	-4.6	-0.8
45	COc1ccc(NC(=O)C2(C)Cc3c(-c4cccc(C(F)(F)F)c4)ccnc3O2)cn1 (configuration not stated)	1.8%	-0.1	-0.9	-0.8	.	-12.4
46	CC1CC(C)CN(C(=O)COc2cccnc2[N+](=O)[O-])C1 (configuration not stated)	-0.9%	6.0	-2.3	-0.6	8.4	-8.0
47	COc1ccc(-c2c(C#N)c(SCc3c(C)noc3C)nc3c2C(=O)CC(C)(C)C3)cc1	12.7%	15.0	0.7	0.4	10.8	9.0
48	Cc1cc(C(=O)CCC(=O)N2CCN(S(=O)(=O)c3cccs3)CC2)c(C)s1	-2.0%	1.1	-7.5	-0.6	-6.7	-1.8
49	CCCC(=O)Nc1cc(C(=O)O)ccc1S(=O)(=O)c1ccc(C)cc1	4.9%	-0.2	-1.6	-0.4	-4.1	-0.7
50	Cc1ccc2c(C)c(C(=O)N(Cc3ccc(N(C)C)cc3)Cc3ccco3)oc2c1C	-0.4%	.	.	0.6	8.4	.
51	CC(C)CC(=O)C1=C(O)C(=O)N(Cc2ccccc2)C1c1ccccc1 (configuration not stated)	-0.1%	-1.8	1.5	.	.	14.7
52	COc1ccc(C(=O)N/N=C/c2ccc(N3CCOCC3)o2)cc1OC	-0.9%	-0.7	2.1	0.1	2.7	0.0
53	NS(=O)(=O)c1cccc(NC(=O)CN2CCc3ccccc32)c1	-0.3%	-17.6	-4.5	-0.1	4.6	-14.1
54	CCn1ccc2c(OCC(=O)Nc3ccccc3C(F)(F)F)cccc2c1=O	1.7%	.	.	1.3	10.2	.
55	CC1(C)CC(=O)C=C(c2ccc(F)nc2)C1	-1.3%	10.3	4.0	1.4	-14.7	-5.1
56	O=C(CSc1nnc(Cn2cnc3ccccc32)o1)c1ccccc1	8.2%	-9.6	1.8	-0.2	14.4	-12.5
57	O=[N+]([O-])c1cccc(COc2ccc(CN3CCOCC3)cc2)c1	-1.9%	-21.5	-1.5	0.3	25.3	-15.2
58	COC(=O)c1ccc(NC(=O)COc2cccc3c2OC(C)(C)C3)cc1	-1.7%	-0.2	-2.3	2.8	9.8	-31.4
59	COc1ccc(N2CCN(C(=S)Nc3cc(C)cc(C)c3)CC2)cc1	2.9%[38.3 µM]	0.5	-0.9	3.9	15.5	-2.2
60	CCc1cc(=O)oc2cc(C)cc(OC(C)C(=O)NCc3cccnc3)c12 (configuration not stated)	-1.8%	6.6	1.1	0.8	13.7	-5.8

Next part:
no.	Compound	PINK1 modulator	Six1-Eya2 blk	D2 agonist	TRPML1 agonist	TRPML1 blocker	D2 potentiator
61	Cc1ccc(Cc2cnc(NC(=O)c3cccs3)s2)cc1	1.8%	-10.7	0.2	6.6	31.6	5.6
62	CC(CN1CCCC1)OC(=O)c1ccccc1Cl (configuration not stated)	-1.8%	-2.7	-1.7	-0.1	-7.2	-11.3
63	Nc1nc2n(n1)C(c1ccco1)CC(c1ccc(F)cc1)N2 (configuration not stated)	-0.4%	3.0	-3.6	-0.1	-17.2	-2.0
64	S=C(NCCCN1CCOCC1)N1CCN(c2cccc(Cl)c2)CC1	-1.3%	-2.8	-2.2	0.8	9.9	-8.6
65	COc1ccc(C2=NO[C@@H]3C(=O)N(c4ccc(C)cc4C)C(=O)[C@H]23)cc1OC	-0.1%	-0.3	-2.4	-0.6	-10.7	-1.0
66	O=C(Nc1ccc(F)cc1F)C1CCCN1S(=O)(=O)c1cccc2nsnc12 (configuration not stated)	-1.0%&2.0%	-0.4	2.1	-0.8&-0.6	-10.3&-13.3	-5.6
67	O=C(Cn1cccc1C(=O)c1ccccc1)NCc1ccccc1Cl	7.0%&0.3%	-1.1	1.2	-1.3&0.0	-0.6&-0.8	-10.3
